ugtP null kill: growth inhibition of S. aureus ugtP deletion strain. S. aureus RN4220 ugtP deletion, OD600 growth, 16 h; some inactives read as strong as hits. AID 1259309. growth inhibition, % (no concentration beside the values). 0.54% of 330,000 active;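 active means z-score under -3 and OD600 up to 0.15 on both plates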;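 further: plate controls were untreated wells for no effect and antibiotic for full effect; wells of about 80 µL received 100 nL stock; the first replicate is given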
Sa RN4220 lethal: kills Staphylococcus aureus RN4220; S. aureus RN4220 growth, OD600, 16 h; inhibition, % (concentration not given with the values); 0.33% of 330,000 active; AID 1259311;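 active means z-score of -3 or lower and OD600 up to 0.18 on both plates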;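 further: plate controls were untreated cells for no effect and reference antibiotic for full effect; stock transfer was 100 nL into about 80 µL; one replicate is shown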
Bead autofluor: counter-screen for toxin protease inhibitors: compound fluorescence. compound autofluorescence counterscreen, microsphere flow cytometry; hits give high values. fluorescence intensity (no concentration beside the values). 3.1% of 360,000 active;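 active means at least 3 SD above the mean of all compounds, about 16000 in these data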;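 further: 100 nL of 1 mM stock went into each well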
BJeLR lethal: kills HRASV12-expressing BJeLR cells; AID 1554; 0.17% of 300,000 active; BJeLR (HRASV12) viability, CellTiter-Glo ATP luminescence, 48 h; reference of the scale not given here; inhibition, % (test concentration not listed);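 active means replicate mean above 50%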;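 further: 50 nL library stock added to about 25 µL; numbers are from one replicate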
Mtb hypoxia rep: inhibitors of hypoxia-regulated fluorescent reporter in Mycobacterium tuberculosis; 0.1% of 300,000 active; M. tuberculosis hypoxia-regulated fluorescent reporter, fluorescence; AID 1159583; fluorescence inhibition, % (test concentration not listed);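 active means 35 to 45% if threefold the growth effect, above 45% if 1.5-fold the growth effect; inactive means the rest, general growth blockers included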;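 further: wells of about 50 µL received 100 nL stock; 0% = vehicle wells and 100% = reference inhibitor wells; whole bacteria with a GFP reporter of the hypoxia response; strong numbers were not always called active; many hits fall short of the cut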
PrP 5UTR inh: inhibition of PrP 5' UTR reporter expression; 0.35% of 340,000 active; AID 488862; inhibition, % (no concentration beside the values); cell-based PrP 5' UTR mRNA reporter, plate reader;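 active means every replicate at 50% or more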;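 further: 0 = median of the neutral control wells; tested in H4 reporter cells; numbers are from one replicate; inactives centre near -14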
Mtb hypoxia rep growth: second read-out of Mtb hypoxia rep, no call of its own (marks repeat the call); growth inhibition, %; measured here: M. tuberculosis growth (absorbance);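 0% = vehicle and 100% = reference antibiotic; read after six days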
* marks the source's active call; other numbers are inactive results; · = not tested or not shown.

SMILES	ugtP null kill	Sa RN4220 lethal	Bead autofluor	BJeLR lethal	Mtb hypoxia rep	Mtb hypoxia rep growth	PrP 5UTR inh
Cc1ccc(Cl)cc1NC(=O)c1ccccc1OCC(=O)Nc1ccc(Cl)cc1	-30	-10.0	2139	-6	10	-4	-12
Cc1ccc([N+](=O)[O-])cc1S(=O)(=O)NCCc1cn2ccccc2n1	4	1.6	4105	6	4	4	-4
CCN(CC)C(=O)Cn1c(=O)n(C)c2ccccc21	5	2.6	3540	15	·	·	-5
Cc1c(C)c2c(c(C)c1O)CCC(C)(C(=O)O)O2 (stereo not given)	-2	2.9	5489	·	3	0	-10
CC(=O)Nc1ccc(Nc2ccc3c4c(cc(=O)n3C)-c3ccccc3C(=O)c24)cc1	7	-2.9	4655	-1	11	2	-14
COc1ccc(CCNC(=O)C(=O)NCC2OCCCN2S(=O)(=O)c2cc(C)ccc2C)cc1 (stereo not given)	2	2.6	5813	3	-2	1	-7
N#Cc1cc(-c2ccccc2)nc(Oc2ccccc2)n1	14	0.2	2214	5	4	2	-11
c1ccc2c3c([nH]c2c1)C1(CCNCC1)NCC3	-4	0.6	3771	4	23	18	-7
O=S(=O)(c1ccc(-c2ccccc2)cc1)N1CCOCC1	9	3.1	3070	0	21	7	-21
CC(C)CC(=O)N1CCN(Cc2ccc3c(c2)OCO3)CC1	4	3.4	12278	6	7	5	-2
COc1cc(NC(=O)[C@@H](NC(=O)N2CCn3c2nc2ccccc23)C(C)C)cc(OC)c1	4	1.7	4739	-5	6	0	4
CC1(C)C2CC=C(/C=N/n3cnnc3)C1C2 (stereo not given)	·	·	3362	-7	·	·	-9
CCOC(=O)N1CCC(=NNC(=O)c2cc3ccccc3cc2O)CC1	-8	-1.8	9247	6	6	2	-6
Cc1ccc(Cl)cc1N(CC(=O)NC1CCCC1)C(=O)c1csnn1	5	3.0	5136	-11	-6	1	-6
CNc1ncnc(NC)c1[N+](=O)[O-]	8	3.3	3053	·	9	4	-7
O=C(c1ccccc1)c1cccc(NC(=O)C2CC2)c1	3	0.6	4565	2	·	·	-3
Cc1ccc(S(=O)(=O)N2CCN(C(=O)CSc3nc4ccccc4c(=O)[nH]3)CC2)cc1	2	2.4	3549	2	8	4	-4
Cc1ccc(N2CCN(C(=O)c3cn(CC4CCCCC4)nn3)C(C)C2)cc1 (stereo not given)	0	-4.4	5845	-3	-1	7	-70
O=C(CSc1nnc2c(n1)[nH]c1ccc(F)cc12)NC1CC1	8	6.2	4758	-1	1	-8	-26
CCCn1c(SCC(=O)NC(C)C)nc2sc3c(c2c1=O)CCC3	14	0.7	3969	1	7	5	-25
CCCCc1c(C)[nH]c(=S)[nH]c1=O	5	4.1	5175	2	15	10	-19
COc1ccc(CNC(=O)c2ccc(CN3CCOCC3)cc2)cc1	-7	2.3	8977	-2	7	13	-13
Cc1ccccc1C(=O)N=c1ccn(-c2nc3ccccc3nc2NS(=O)(=O)c2ccccc2)cc1	14	-4.3	5496	-1	4	-8	-24
CCC1CCC(N2CCN(c3ccc(F)cc3)CC2)CC1 (stereo not given)	-1	2.8	2939	4	-11	0	-42
COc1ccc(-n2nc(C(=O)NCC(=O)Nc3cc(Cl)c(OC)cc3OC)c3ccccc3c2=O)cc1	4	0.8	3605	6	-12	-6	-7
CCOC(=O)c1sc(-c2ccc(OC)cc2)cc1N	5	4.8	2500	-8	3	11	-99
CC(=O)N1CCc2cc(S(=O)(=O)NCCC(=O)NC3CCN(Cc4ccccc4)CC3)ccc21	0	1.0	5770	·	·	·	-12
CCCC(CCC)C(=O)Nc1ccc2c(c1)N(C(=O)CCN1CCN(C)CC1)c1ccccc1CC2	-1	6.3	4459	4	5	16	-26
COCCN1CC(C(=O)NCc2ncccc2C)CCC1=O (stereo not given)	0	0.9	6317	-6	10	-13	-20
O=C(CN(C1CCCCC1)S(=O)(=O)c1ccccc1)NCc1cccnc1	1	6.3	3059	-2	-3	2	-16
Cc1cc(C)c(S(=O)(=O)N2CCCC(C(=O)NC3CCCC3)C2)c(C)c1 (stereo not given)	4	2.0	3350	-6	14	12	-21
Oc1c(Cl)cc(Cl)cc1CN1CCN(Cc2ccccc2)CC1	0	-3.2	9692	-7	-1	2	-20
CCOC(=O)C1CCCN(Cc2ccccc2C)C1 (stereo not given)	5	4.2	9955	0	7	6	-53
O=C(Cc1ccccc1)N[C@@H](Cc1ccccc1)c1nc2ccccc2[nH]1	0	14	2360	-4	-8	2	4
Cc1ccc(CNC(=O)C2CCC(=O)N(CC3CCCCC3)C2)o1 (stereo not given)	1	1.3	6049	6	8	11	-6
CCOc1ccc(CCNC(=O)CSc2nnnn2C)cc1OCC	16	6.4	3947	-6	-4	5	-1
CCCCNC(=O)c1ccc(CS(=O)(=O)Cc2ccccc2F)o1	3	5.0	4914	5	11	0	-44
O=c1c2ccccc2nc(SCc2nnc(-c3ccccc3Br)o2)n1-c1ccccc1	16	0.4	7800	-1	17	7	-8
CC1CCCC(NC(=O)COC(=O)c2cc(=O)[nH]c3ccccc23)C1C (stereo not given)	1	1.6	3108	·	3	0	2
c1ccc(CN=C(NCc2ccccc2)NCc2ccccc2)cc1	-9	4.5	2987	·	21	13	-32
CCOc1c(Cl)cc(CNC(C)(C)CC(C)(C)C)cc1OC	2	1.9	21728*	5	-4	3	-30
CCOc1ccc(-c2cc(CCCC(=O)NCCc3ccccc3)no2)cc1	18	-1.2	3902	-5	3	3	12
O=C(O)c1ccccc1C(=O)OCCc1cc2ccccc2c(=O)o1	0	7.0	4495	·	2	5	-15
CCSc1nnc(NC(=O)[C@@H](NC(=O)c2ccccc2F)C(C)C)s1	-2	1.3	4505	-1	1	-1	-20
Cc1ccc(OCc2cc(C(=O)NC3CCOC3)no2)cc1C (stereo not given)	9	3.7	4499	2	15	2	-11
CCN(CC#CCC1(O)c2ccccc2-c2ccccc21)CCO	5	2.5	8900	-5	7	-1	-13
CC(NS(C)(=O)=O)C(c1cccs1)N1CCN(C)CC1 (stereo not given)	21	7.0	16401*	4	3	-2	-18
CC(C)(C)N(Cc1cc2ccccc2[nH]c1=O)C(=O)C1CCCCC1	0	3.0	2065	-11	8	1	-39
O=C(c1ccco1)N1CCC(c2nc3ccccc3[nH]2)CC1	7	5.1	·	-3	-2	-5	-12
CCC(NC(=O)NCc1ccc2c(c1)OCO2)(C(F)(F)F)C(F)(F)F	-11	-1.6	16887*	0	-8	-5	-9

Next section.
SMILES	ugtP null kill	Sa RN4220 lethal	Bead autofluor	BJeLR lethal	Mtb hypoxia rep	Mtb hypoxia rep growth	PrP 5UTR inh
COc1ccc(-c2csc(NC(=S)NC(=O)c3ccco3)n2)cc1Br	2	-11	12298	-8	17	-13	-25
O=C(NCC1CCCO1)c1cc2cc(Cl)ccc2[nH]1 (stereo not given)	-5	-3.0	3181	1	-1	-3	-1
CCn1c(COc2ccccc2C)nnc1SCC(=O)N1CCN(c2ccccc2)CC1	-18	-4.1	5314	1	-1	15	-6
Nc1cc(Cl)ccc1Nc1ccncc1	3	-0.7	4125	-4	10	12	-4
COc1cc(C=NNc2ccccc2C(F)(F)F)ccc1O	4	4.3	·	·	4	-2	·
CCOC(=O)C1CCN(S(=O)(=O)c2ccc(Cl)nc2)CC1	-1	1.5	4117	-2	8	-1	-10
CCc1ccc(NC(=O)CS(=O)CC(=O)NCCCc2ccccc2)cc1 (stereo not given)	5	5.8	9514	9	12	12	-23
O=C(CC1NCCNC1=O)Nc1cc(Cl)cc(Cl)c1 (stereo not given)	1	4.3	7461	1	8	7	-5
CCOC(=O)CCCC(=O)N1CCOCCOCCOCC1	9	4.6	·	-6	-12	4	-5
Cc1ccn2cc(-c3cnoc3C)nc2c1	5	-0.6	3935	1	17	11	-23
CN(C)S(=O)(=O)N(CC(=O)Nc1ccccc1)c1ccccc1	-4	2.4	4924	·	·	·	-16
CCOc1cc(C2CC(=O)NC(SCC)=C2C#N)ccc1O (stereo not given)	10	7.8	5285	0	7	8	-14
Cc1cc2c(cc1C)CSC(c1ccc(O)cc1)SC2	-12	6.4	5238	4	2	3	18
CN1CCN(C(c2cccnc2)c2ccc3cccnc3c2O)CC1 (stereo not given)	3	1.6	8437	-2	-2	-2	-9
COc1cccc(/C=N/N2CCN(C3c4ccccc4-c4ccccc43)CC2)c1O	·	·	3423	1	·	·	-11
CC(=Nc1ccccc1)C1=C(O)COC1=O	4	4.0	7801	-6	16	8	-13
Cc1ccc(S(=O)(=O)N(C)C)cc1-n1c(SCC(=O)Nc2ccc(F)cc2Cl)nc2ccccc2c1=O	6	-2.3	2481	13	3	0	14
CC(C)(CN1CCN(C(c2ccccc2)c2ccccc2)CC1)NS(=O)(=O)c1ccccc1	10	2.5	4945	-7	13	10	-38
O=C(CC(c1ccccc1)c1ccccc1)Nc1ccc(O)cc1	9	-5.7	4008	12	-3	-2	-57
COC(=O)c1ccc(C2C=C(C(=O)O)OC(OCc3ccc(CO)cc3)C2)cc1 (stereo not given)	-1	-0.8	·	·	3	4	·
c1ccc(-c2cc(-c3nc(-c4ccccn4)no3)c3ccccc3n2)cc1	54	26	2934	-2	3	-9	-7
O=C(N/N=C/c1ccc(-c2ccc(Br)cc2)o1)c1ccc2c(c1)OCO2	·	·	4216	-12	·	·	-16
O=C(O)CCn1nnc(-c2cccs2)n1	7	3.5	·	-1	3	4	-23
COc1ccccc1N(C)S(=O)(=O)c1ccc(C(=O)Nc2nccs2)cc1	-2	7.0	3891	·	8	10	-12
CC1(C)c2[nH]c3ccccc3c2C[C@@H]2C(=O)N(Cc3ccc(F)cc3)C(=O)N21	·	·	4060	3	·	·	-14
O=C(CN1C(=O)C(=O)N(Cc2ccccc2)C1=O)Nc1ccc(OC(F)F)cc1	4	4.5	·	·	12	4	-6
CCN(c1cccc(C)c1)S(=O)(=O)c1nnc(NC(=O)c2ccco2)s1	-2	8.1	5496	3	-4	6	0
CN(C(=O)c1ccc(NC(=O)Cc2cccc(NC(=O)C3CCCN(C(=O)c4ccccc4)C3)c2)cc1)C1CC1 (stereo not given)	6	4.4	4168	·	0	3	-18
O=C(CNC(=O)c1ccccc1)NCCO	-2	9.3	3398	2	13	6	-5
O=C(O)c1cc(-c2ccc(Cl)cc2)n[nH]1	-3	-17	2755	-2	·	·	1

Two records drawn at random from the list so far:
SMILES	ugtP null kill	Sa RN4220 lethal	Bead autofluor	BJeLR lethal	Mtb hypoxia rep	Mtb hypoxia rep growth	PrP 5UTR inh
CCN(c1cccc(C)c1)S(=O)(=O)c1nnc(NC(=O)c2ccco2)s1	-2	8.1	5496	3	-4	6	0
O=C(N/N=C/c1ccc(-c2ccc(Br)cc2)o1)c1ccc2c(c1)OCO2	·	·	4216	-12	·	·	-16

Another view of 2 compounds above:
Each structure is followed by: ugtP null kill	Sa RN4220 lethal	Bead autofluor	BJeLR lethal	Mtb hypoxia rep	Mtb hypoxia rep growth	PrP 5UTR inh
- Cc1c(C)c2c(c(C)c1O)CCC(C)(C(=O)O)O2 (stereo not given)
  -2	2.9	5489	·	3	0	-10
- CC(=O)Nc1ccc(Nc2ccc3c4c(cc(=O)n3C)-c3ccccc3C(=O)c24)cc1
  7	-2.9	4655	-1	11	2	-14

The main list resumes, starting three compounds before the break.
SMILES	ugtP null kill	Sa RN4220 lethal	Bead autofluor	BJeLR lethal	Mtb hypoxia rep	Mtb hypoxia rep growth	PrP 5UTR inh
CN(C(=O)c1ccc(NC(=O)Cc2cccc(NC(=O)C3CCCN(C(=O)c4ccccc4)C3)c2)cc1)C1CC1 (stereo not given)	6	4.4	4168	·	0	3	-18
O=C(CNC(=O)c1ccccc1)NCCO	-2	9.3	3398	2	13	6	-5
O=C(O)c1cc(-c2ccc(Cl)cc2)n[nH]1	-3	-17	2755	-2	·	·	1
CCN(CC)c1ccc(NC(=O)c2cncc(Br)c2)cc1	9	2.3	2052	2	·	·	-63
O=C(NCCc1ccccc1)c1ccc(Cl)c([N+](=O)[O-])c1	-5	0.0	10063	5	0	6	-69
COc1ccc(-c2ccc3nnc(SCC(N)=O)n3n2)cc1	4	6.4	4183	3	13	14	-27
Cc1ccc(-c2n[nH]c(=S)nc2-c2ccc(C)cc2)cc1	-9	6.0	3844	6	7	2	-16
CC(=O)c1ccc(-n2cc(C#N)c(=O)[nH]c2=O)cc1	0	1.2	4804	3	14	-1	-11
CCOC(=O)c1c(-c2ccccc2)csc1NC(=O)/C(C#N)=C/c1ccc(OC)c(OC)c1	-2	3.0	2118	-3	7	-2	-17
O=[N+]([O-])c1cccc(-c2ccc(/C=N/n3c(-c4ccccc4)n[nH]c3=S)o2)c1	·	·	8492	-9	·	·	-10
